# Kir21 block – inhibitors of mouse Kir2.1 inward-rectifier potassium channel | P35561 | HEK293-Kir2.1, FluxOR thallium flux fluorescence; hits give low values | B-score at 10 µM | 0.85% of 310,000 active;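 active = fluorescence ratio B-score at or below minus 3 SD of library scores, with starting-brightness B-score within 2 SD, cut at about -4.2 in these data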;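 note: channel flux triggered by added potassium and thallium sulfate stimulus; B-score of peak minus minimum fluorescence over baseline after thallium stimulus; more negative B-score means stronger Kir2.1 block with less thallium influx; some compounds called inactive have numbers as strong as hits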
# Target sequence (P35561 whole entry, looked up): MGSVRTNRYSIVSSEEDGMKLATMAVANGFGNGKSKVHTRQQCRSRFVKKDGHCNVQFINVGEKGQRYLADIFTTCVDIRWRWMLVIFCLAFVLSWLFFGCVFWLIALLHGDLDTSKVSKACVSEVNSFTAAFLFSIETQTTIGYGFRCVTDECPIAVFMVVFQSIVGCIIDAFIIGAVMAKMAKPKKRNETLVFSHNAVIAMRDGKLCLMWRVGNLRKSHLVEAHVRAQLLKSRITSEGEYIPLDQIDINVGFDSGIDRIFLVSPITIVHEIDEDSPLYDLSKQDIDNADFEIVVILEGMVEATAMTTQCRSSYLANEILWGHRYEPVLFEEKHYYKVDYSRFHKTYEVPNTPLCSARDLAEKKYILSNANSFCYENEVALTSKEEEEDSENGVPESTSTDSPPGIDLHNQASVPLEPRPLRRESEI
# * = called active by the depositor; & = joins results of further samples. Not all compounds are listed; most or all hits stand in other tables.
compound | Kir21 block
O=C(NCCCn1ncc2ccccc21)c1cc(COc2c(F)cccc2F)on1 | 1.3
CC(C)CN(C(=O)CCc1ccccc1Cl)c1c(N)n(Cc2ccccc2)c(=O)[nH]c1=O | -1.9
Cn1c(NCc2ccco2)nc2c1c(=O)n(Cc1ccc(Cl)cc1Cl)c(=O)n2C | -0.44
CCN1C(=O)C(F)(CC)C(=O)c2ccccc21 (stereo not drawn) | 0.03
Cc1nc2c3ccccc3nc(NNC(=O)CCC(=O)N3CCN(c4ccc(F)cc4)CC3)n2n1 | 0.97
Cc1nc(-c2ccc(NC(=O)/C=C\C(=O)O)cc2)cs1 | 2.6
COc1ccc(C(=O)Nc2ccnn2C2CCN(Cc3ccc4nonc4c3)CC2)cc1 | 1.1
O=C(NC(C1CC1)C1CC1)C1CCC(=O)N(CCCN2CCCC2=O)C1 (stereo not drawn) | 1.5
CN1C(=O)c2ccccc2C(C(=O)NCCCN2CCCC2)C1c1c[nH]c2ccccc12 (stereo not drawn) | 0.28
COc1cc(NC(=O)c2ccccc2)c(OC)cc1NC(=O)CN1CCCCC1 | 0.71
O=C(COC(=O)c1cccc([N+](=O)[O-])c1)Nc1ccc(Cl)cn1 | -0.66
O=C(Nc1ccccc1C(=O)N1CCCCCC1)c1cccc([N+](=O)[O-])c1 | 0.46
CC1(C)C(=O)Nc2ccccc2N1C(=O)COC(=O)Cn1cnc2ccccc2c1=O | -2.2
Cc1nc(C)c(C(=O)N(c2ccc(F)cc2)C(C(=O)NCC2CCCO2)c2ccccc2)s1 (stereo not drawn) | 0.2
Cc1ccccc1CC1(CO)CCCN(Cc2ccccc2Cl)C1 (stereo not drawn) | -1
COc1ccc(NC(=O)c2cncc(Br)c2)c(S(=O)(=O)N2CCOCC2)c1 | 1.3
Cc1cc(C)cc(N2C(=O)CC(Sc3nnnn3-c3ccccc3)C2=O)c1 (stereo not drawn) | 0.02
COc1ccccc1N(C)S(=O)(=O)c1ccc(C(=O)N2CCC(C(N)=O)CC2)cc1 | -0.86
Cn1ccc(C(=O)Nc2sc3c(c2C#N)CCC3)n1 | 0.32
S=C(NC1CCCC1)NC1CCCC1 | 0.99
O=C(CCc1ccccc1)Nc1cccc(NC(=O)CCc2ccccc2)c1 | -1.4
Cc1nn2c(=O)cc(COC(=O)c3ccc(NC(=O)C(C)(C)C)cc3)nc2s1 | -0.48
COC(=O)c1c[nH]n2c(=O)cc(CCl)nc12 | 1.6
Cc1ccc(-c2c3c(=O)n(C)c(=O)n(C)c3cn2-c2ccccc2O)cc1 | 0

# The list goes on; it opens with the two that closed the last part.
compound | Kir21 block
COC(=O)c1c[nH]n2c(=O)cc(CCl)nc12 | 1.6
Cc1ccc(-c2c3c(=O)n(C)c(=O)n(C)c3cn2-c2ccccc2O)cc1 | 0
CCN(CC(=O)NCc1ccc(Cl)cc1)C(=O)COc1ccc(C)cc1C | -1.2
CN1CCN(C(=O)c2ccc(CN(c3ccccc3)S(=O)(=O)c3ccccc3)cc2)CC1 | -0.57
COC(=S)Nc1cccc(C(F)(F)F)c1 | -0.05
CCOc1ccccc1N1CC(C(=O)Nc2cc(Cl)ccc2-n2cncn2)CC1=O (stereo not drawn) | 0.79
Cc1cccc(C(=O)NCC(=O)NC2CCC(C)CC2)c1 (stereo not drawn) | 0.27
Cc1ccc(NC(=O)Cc2nnc(SCC(=O)Nc3nncs3)n2C)cc1 | 3.5
COc1cccc(OC)c1C(=O)Nc1nc2ccc([N+](=O)[O-])cc2s1 | -0.71
O=C(CSc1nnnn1C1CCCCC1)NCc1ccc2c(c1)OCO2 | -1.4
Cn1cccc1/C=C(/C#N)C(N)=S | 0.31
Cc1nn(C(C)C(=O)NC2CCCCCC2)c(=O)c2nn(-c3ccccc3)c(C)c12 (stereo not drawn) | -0.26
N#Cc1nc(-c2cccs2)oc1NCCN1CCOCC1 | -0.53
O=C1N=NC(=O)N1c1ccccc1 | -1.1
CCOc1ccc(CNC(=S)N/N=C/c2ccncc2)cc1 | 0.02
COc1ccc(-n2nc3c(c2NC(=O)CBr)CSC3)cc1 | 0.48
O=C(N/N=C/c1ccccc1C(F)(F)F)c1ccc(O)cc1 | -0.01
COc1cc(CCN2C(=O)c3cccc4cccc(c34)C2=O)c(S(=O)(=O)NCCO)cc1OC | 2.8
Cn1cc(CC(=O)NCCCN2CCCC2=O)c2ccccc21 | 1.9
O=C(NCc1ccc2c(c1)OCO2)c1ccc(S(=O)(=O)C(F)F)cc1 | 0.47
Cc1cc(S(=O)(=O)N2CCCCC2)ccc1OCC(=O)Nc1ccccc1 | 1.7
CCc1ccccc1NC(=O)c1cc(-c2ccc3c(c2)OCO3)on1 | -1
CC(C)OCCCNC(=O)c1ccccc1NC(=O)C1=CSCCO1 | 2
COC(=O)c1cc(C#N)c(Oc2ccccc2OC)nc1C | 0.22
O=C(c1cc(C2CC2)nc2ccc(Br)cc12)N1N=C(C(F)F)CC1(O)C(F)F (stereo not drawn) | -1.9
CNC(=S)/N=C/NOCc1c(Cl)cccc1Cl | 0.85

# Additional structures.
canonical_smiles | Kir21 block
Cc1noc(C(=O)NCC2CCCO2)c1Cl (stereo not drawn) | -0.7
CCOc1ccc(/C=C2/Sc3ccc(C(=O)N4CCOCC4)cc3N(C)C2=O)cc1OC | 0.06
Cc1cc(N2CCOCC2)nc2ccc(NC(=S)N3CCN(c4ccccc4)CC3)cc12 | -0.17
COc1ccc(-c2oc3ncnc(N)c3c2-c2ccccc2)cc1 | 0.74
C/C(CCc1oc2ccc(Cl)cc2c1-c1ccc(C)o1)=N\O | -0.09
COC(=O)CCn1[nH]c(=O)c2ccccc2c1=O | -0.24
Cc1nn(C(C)C(=O)NCCC2=CCCCC2)c(=O)c2nn(-c3ccccc3)c(C)c12 (stereo not drawn) | -0.34
O=c1c2ccccc2nc(/C=C/c2ccc([N+](=O)[O-])cc2)n1CCCO | -0.17
O=C(O)CCNc1nc(-c2ccccc2)nc2ccccc12 | -0.07
Cc1ccc(-n2c(O)c(/C=N/n3cnnc3)c3ccccc3c2=O)cc1 | -1.9&-1.1
CCOC(=O)C1=C(N)n2c(s/c(=C\c3cccs3)c2=O)=C(C(=O)OCC)C1c1cccs1 (stereo not drawn) | -0.14
COc1ccc(-c2cc(C(F)(F)F)nc(SCC(=O)Nc3ccc4c(c3)OCO4)n2)cc1OC | -0.07
CCOC(=O)CCCNC(=O)CN1C(=O)NC2(CCCCCC2)C1=O | 2.6
C[C@H](NC(=O)c1ccc2c(c1)OCO2)c1nnc2ccccn12 | -0.01
Cc1onc(-c2ccccc2Cl)c1C(=O)NC(=S)Nc1ccccc1C(N)=O | 0
COc1ccccc1C(=O)Nc1ccc2c3c(cccc13)CC2 | -0.84
Cc1ccccc1C1=NC(C(F)(F)F)(C(F)(F)F)c2c(n(C)c(=O)n(C)c2=O)N1 | 0.64
Cn1c2ccccc2c(=O)c2c(=O)n(Cc3ccco3)c(-c3ccc(F)cc3)nc21 | 0.07
CC(NC(=O)OC(C)(C)C)C(=O)NC(CCC(=O)OCc1ccccc1)C(N)=O (stereo not drawn) | 0.11
CN(C(=O)c1cccc(C(=O)N(C)c2ccccc2)c1)c1ccccc1 | -0.14
CCOC(=O)c1nn(-c2ccccc2)c(=O)cc1SC1CCCCC1 | 0.84
COC(=O)c1ccc(CN2CCC(CO)(Cc3ccc(OC)cc3)CC2)cc1 | -0.96
O=C(NCc1ccccc1Cl)c1cc([N+](=O)[O-])ccc1Cl | 0.09
Cc1sc2nc(CN(C(=O)NCc3ccccc3)C3CCCC3)[nH]c(=O)c2c1C | -0.09
O=c1ccn(CCc2c[nH]c3ccccc23)c2c1CCCC2 | 0.03

# Another view of 4 compounds above.
COC(=S)Nc1cccc(C(F)(F)F)c1
  Kir21 block: -0.05

CCOc1ccccc1N1CC(C(=O)Nc2cc(Cl)ccc2-n2cncn2)CC1=O (stereo not drawn)
  Kir21 block: 0.79

Cc1cccc(C(=O)NCC(=O)NC2CCC(C)CC2)c1 (stereo not drawn)
  Kir21 block: 0.27

Cc1ccc(NC(=O)Cc2nnc(SCC(=O)Nc3nncs3)n2C)cc1
  Kir21 block: 3.5

# Carrying on:
canonical_smiles | Kir21 block
O=C(CS(=O)(=O)Cc1ccccc1)Nc1ccc(Cl)cn1 | -1.7
COc1ccccc1C(C)NC(=O)Cc1ccsc1 (stereo not drawn) | -2
CN1CCN(CC(=O)N/N=C/c2ccc(F)c(F)c2)CC1 | 0.75
COc1cc(C2NC(=S)NC(O)(C(F)(F)F)C2C(=O)c2cccs2)cc(OC)c1O (stereo not drawn) | -0.85
COc1cccc(NC(=O)C2CC(=O)N=C(N)S2)c1 (stereo not drawn) | 0.04
O=C(CCl)Oc1ccc2occ(C(=O)c3cccs3)c2c1 | -0.33
Cc1ccc(CS(=O)(=O)Cc2ccc(C(=O)NCc3ccco3)o2)cc1 | 0.82
CS(=O)(=O)c1sc(C(=O)NC(=S)Nc2ccc(OC(F)(F)F)cc2)c2c1C=CCC2 | 2.4
OCCCNc1nc(-c2ccc(Cl)cc2)nnc1-c1ccc(Br)cc1 | 1.9
Cc1oc2c(c1C(=O)Nc1cccc(C(=O)O)c1)CCCC2 | 1.2
CC(C)Cn1c(N)c(C(=O)COC(=O)c2c(F)cccc2F)c(=O)n(C)c1=O | 0.2
Cc1nnc(NC(=O)C2(c3ccccc3)CCOCC2)s1 | 0.04
COCCNC(=O)C1CC(=O)N(CCc2ccccc2)C1 (stereo not drawn) | 0
CC1CCN(c2ccc([N+](=O)[O-])cc2C(=O)O)CC1 | -0.12
O=C(Nc1nnc(-c2ccncc2)s1)Nc1ccccc1F | -1.9
OC1CCCN(Cc2cn(Cc3ccccc3)nc2-c2cc3ccccc3o2)C1 (stereo not drawn) | 0.31
O=[N+]([O-])c1cccc(/C=N/N2CCN(Cc3ccccc3)CC2)c1 | -0.59
CC(C)N(C)Cc1nnnn1CC(=O)NCCc1cccc(C(F)(F)F)c1 | -0.14
CCN(C(=O)COC(=O)/C=C/c1nc2ccccc2s1)C1CCS(=O)(=O)C1 (stereo not drawn) | 1.8
CC1=NN(c2ccccc2)C(=O)C1c1ccccc1 (stereo not drawn) | 0.06
COc1ccc(/C=N/N2CCN(c3ccccc3OC)CC2)cc1OC | -0.13
COc1ccccc1OCc1nc(-c2ccc([N+](=O)[O-])cc2)no1 | -0.07
CCc1nonc1NC(=O)c1oc2ccc(Cl)cc2c1C | -0.9
COc1ccc(CCNc2nc(-c3cccnc3)nc3ccccc23)cc1OC | -0.38
CSCC[C@H](NC(=O)OC(C)(C)C)C(=O)N1CCC(C(=O)N[C@@H](C)C(=O)O)CC1 | 0.81
Cc1cc(C)c(C(N)=O)c(Nc2cccc3ccccc23)n1 | 0.59
C=CCn1cc(-c2cccc(Cl)c2)cc(C#N)c1=O | -0.37
O=C(NCc1cccnc1)c1ccc(N2CCOCC2)c([N+](=O)[O-])c1 | 0.04
Cc1ccc(SCC(=O)NCCC2=CCCCC2)cc1 | -0.57
CCOC(=O)C1=C(C)NC(=S)NC1c1cccs1 (stereo not drawn) | -0.77
Cc1nnc(NC(=O)C(C)Sc2nnc(CNC(=O)c3ccccc3F)n2C)s1 (stereo not drawn) | 1.3
COC(=O)[C@]1(C)N[C@H](c2ccc(-c3ccccc3)cc2)[C@@H]2C(=O)N(C)C(=O)[C@@H]21 | 0.41
CCOC(=O)Cc1csc(NC(=O)COc2ccc(C)cc2)n1 | -0.69
CCOC(=O)Cc1cc(=O)n2[nH]c(C)c(-c3ccccc3OC)c2n1 | -0.97
CCOC(=O)c1c(C)[nH]c(C)c1C(=O)CSc1nnnn1-c1ccccc1 | -2.2
CCOC(=O)N1CCN(C(=O)CSC2=NS(=O)(=O)c3cc(F)ccc3N2)CC1 | 1.3
O=C(Nc1cc(Cl)ccc1-n1cncn1)c1ccc(F)c(S(=O)(=O)N2CCOCC2)c1 | -1.9
COc1cccc(/C=C2\NC(=O)NC2=O)c1O | 0.64
Cc1nc(Nc2ccccc2)sc1C(=O)Nc1ccccc1 | 0.03
CCCOc1ccc(/C=N/NC(=O)CN2CCCCC2)cc1OCC | 0.02
Cc1ccc(C(=O)OCC(=O)Nc2ccc3[nH]c(=O)[nH]c3c2)cc1[N+](=O)[O-] | -0.86
COc1cc(C(=O)c2ccccc2)c([N+](=O)[O-])cc1OC | -1.5
C#CCSc1nnc(-c2ccc(C)cc2)o1 | -0.25
Cc1ccc(CNS(=O)(=O)NCc2cccs2)cc1 | 0.47
COc1ccc(N2CCN(CCCNC(=O)CC3Oc4ccc(C)cc4NC3=O)CC2)cc1 (stereo not drawn) | -1.8
O=C(CSc1nc2c(c(=O)n1-c1ccc(Br)cc1)SCC2)Nc1nccs1 | -0.29
Cc1onc(-c2ccccc2)c1C(=O)N1CCN(c2ncccn2)CC1 | 1.9
CCN(CC)C(=O)c1cc2c(=O)n3ccccc3nc2s1 | 2
CN(C)/C=N/c1nc2nccc(-c3cccs3)n2n1 | 0.24
CCn1c(SCC(=O)Nc2ccc(N(C)C)cc2)nnc1C1CC1 | 0.72

# Some of the entries above in a different format:
Kir21 block | SMILES
0.64 | COc1cccc(/C=C2\NC(=O)NC2=O)c1O
0.03 | Cc1nc(Nc2ccccc2)sc1C(=O)Nc1ccccc1
0.02 | CCCOc1ccc(/C=N/NC(=O)CN2CCCCC2)cc1OCC

# Other entries.
canonical_smiles | Kir21 block
O=C(O)c1cc(NN=C2c3ccccc3-c3ccccc32)ccc1Cl | -1.3
O=C(N1CCOCC1)N1CCN(c2ccc(F)cc2)CC1 | -1.1
COc1ccc(/C=N/Nc2nc3ccccc3o2)cc1OC | 0.52
CC1CCc2c(sc(NC(=O)C(=O)NCc3ccco3)c2C#N)C1 (stereo not drawn) | 0.41
N/C(=N\OC(=O)CCn1cccc(C(F)(F)F)c1=O)c1ccc(Cl)cc1 | -0.02
O=C(/C=C/Nc1ccc(F)c(Cl)c1)c1ccccc1 | 1.5
Cc1nc2ccc(S(=O)(=O)NC(C(=O)NC3CCCC3)C(C)C)cc2s1 (stereo not drawn) | -0.09
Cc1nc(NC(=O)C2CCCCC2C(=O)O)sc1C (stereo not drawn) | 1.1
